TsaE inh: qHTS Assay for Inhibitors of YjeE. 0.05% of 71,000 active. purified YjeE, fluorescence polarisation of a bound ADP probe. AID 605, 2007. tRNA threonylcarbamoyladenosine biosynthesis protein TsaE (Escherichia coli (strain …. Potency, µM; active = well fitted falling curve; inconclusive = weaker or top-dose-only fall, or a rising curve; inactive = flat or poorly fitted curve;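 further: top concentration of the series not given in the record; excess ADP was the control for the full effect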
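Purified YjeE (10 uM) with BODIPY Texas Red-labeled ADP probe (2 uM); compounds pin-transferred, 15 min at room temperature. Binding inhibition read as decreased fluorescence polarization; ADP titration as control.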
PK Bst: Pyruvate Kinase; AID 361, 2006; 1.2% of 51,000 active; partly purified Bacillus stearothermophilus pyruvate kinase, luminescence ATP production; ribose 5-phosphate activator present at AC10; Potency, µM; in the data active means potency below about 11 µM; inconclusive means mostly about 12 µM to 25 µM; inactive means weaker than that;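 the screen sought inhibitors and activators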;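 further: potency means the concentration at half of the fitted maximal effect; scaled between full activation by ribose 5 phosphate and full inhibition by luteolin; about four in five hits inhibit and the cells do not say which; series up to 57 µM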
* marks the source's active call; other numbers are inactive results; i = inactive; ? = inconclusive; / = no result given.

Value order – PK Bst	TsaE inh
> Cc1ccc(S(=O)(=O)NC(CC(=O)O)c2ccccc2)c(C)c1 (stereo not drawn)
  /	i
> Cc1cccc2cc3c(N)c(C#N)sc3nc12
  /	i
> COc1ccc(CNc2nc(-c3cccnc3)nn2C(=O)c2cccs2)cc1
  /	i
> O=C1CSC(c2cccs2)N1c1ccccc1 (stereo not drawn)
  >57	i
> CCOCCCNc1nc(=S)[nH]c2cc(OC)c(OC)cc12
  >57	i
> Cc1nn(-c2ccccc2)c2c1C(c1ccco1)C(C#N)=C(N)O2 (stereo not drawn)
  /	i
> CCN1CCN(Cc2c(O)ccc3c(=O)c(-c4ccccc4OC)coc23)CC1
  >57	i
> CCCCOC(=O)Cn1cnc2ccc(Br)cc2c1=O
  >57	i
> N#C/C(=C(\O)C(=O)O)c1ccc(-c2cccc3ccccc23)cc1
  /	i
> CN(C)S(=O)(=O)N1CCN(CC(O)COc2ccc3cc(Br)ccc3c2)CC1 (stereo not drawn)
  /	i
> CCOc1ccc2c(c1)n([O-])c1c([n+]2=O)CCCC1
  >25.6	/
> O=C1CC(c2ccc3c(c2)OCO3)Sc2nc3ccccc3n21 (stereo not drawn)
  4.54*	i
> O=c1[nH]c(SCc2ccccc2[N+](=O)[O-])nc2nc[nH]c12
  /	i
> CSc1nc(N2CCCC2)c2c(c1C#N)CC(C)(C)OC2
  >25.6	/
> COC(=O)c1c(C(=O)NCc2ccccc2)ncn1CC(O)COc1ccccc1 (stereo not drawn)
  >57	i

One compound at a time, from the list above. Screens in order: PK Bst, TsaE inh
`Cc1nn(-c2ccccc2)c2c1C(c1ccco1)C(C#N)=C(N)O2` (stereo not drawn) in the list: /, i
`CCOCCCNc1nc(=S)[nH]c2cc(OC)c(OC)cc12` in the list: >57, i
`O=C1CSC(c2cccs2)N1c1ccccc1` (stereo not drawn) in the list: >57, i
`COc1ccc(CNc2nc(-c3cccnc3)nn2C(=O)c2cccs2)cc1` in the list: /, i

The list continues.
Value order – PK Bst	TsaE inh
> CN1CCN(Cc2c(O)ccc3c(-c4ccccc4)cc(=O)oc23)CC1
  >25.6	/
> CC(=O)c1ccc(Nc2ncnc3c2oc2ccccc23)cc1
  >57	i
> CCOc1ccc2[nH]c(=O)c(C(c3nnnn3C3CCCCC3)N3CCN(C)CC3)cc2c1 (stereo not drawn)
  >57	i
> CC(=O)Nc1cc(S(=O)(=O)C(F)(F)F)ccc1Cl
  >57	i
> Cc1c(-c2ccccc2)oc2cc(O)ccc2c1=O
  /	i
> C[C@@H](C(=O)Nc1ccc2ccccc2c1)[C@H]1C[C@]1(C)[C@H](NC(=O)OCc1ccccc1)c1ccccc1
  /	i
> Cc1noc(C)c1S(=O)(=O)NCc1ccc2c(c1)OCO2
  /	i
> N[C@@H](CS(=O)O)C(=O)O
  /	i
> C=CCn1c(SCC(=O)Nc2ccccc2OC)nnc1-c1ccco1
  >57	i
> CC1CCN(c2nc3c(c(=O)[nH]c(=O)n3C)n2CCSc2nc3ccccc3o2)CC1
  >57	i
> CCNc1oc(COc2ccccc2F)nc1C#N
  >57	i
> Cc1nn(C)c(Cl)c1S(=O)(=O)N[C@@H](c1ccccc1)[C@]1(C)C[C@H]1[C@@H](C)C(=O)Nc1ccc2ccccc2c1
  /	i
> CCN1CCN(Cc2c(OC)ccc3ccccc23)CC1
  >57	i
> CC1C(c2ccccc2)N(C)CCC12NC(=O)NC2=O (stereo not drawn)
  >57	i
> Cc1cc(C(F)F)n2nc(C(=O)Nc3cccc(C(F)(F)F)c3)nc2n1
  >57	i

Additional structures follow:
Value order – PK Bst	TsaE inh
> CCOc1cccc(Oc2ccc(C(F)(F)F)cn2)c1
  >57	i
> CN(C)c1ccc(Cc2ccc(N(C)C)cc2)cc1
  /	i
> COc1ccc2[nH]cc(CCNc3ncnc4ccc(-c5ccc(C(=O)N(C)C)cc5)cc34)c2c1
  /	i
> CC(=O)NS(=O)(=O)c1ccccc1
  >57	i
> CCOc1ccccc1OCc1nn2c(-c3ccc(C)cc3)nnc2s1
  ?	i
> CCc1c(C)[nH]c2ccccc2c1=O
  >57	i
> CCOC(=O)N1CCN(C(=O)CSc2nnc(C3COc4ccccc4O3)o2)CC1 (stereo not drawn)
  /	i
> Cc1oc(C(=O)O)cc1CSCc1ccoc1C(=O)O
  /	i
> COc1ccc(S(=O)(=O)N2CCC(C(N)=O)(N3CCCCC3)CC2)cc1
  /	i
> COC(=O)COc1ccc(S(=O)(=O)NCc2cccnc2)cc1
  >57	i
> Cc1sc2ncnc(Oc3ccc(-n4ccnc4)cc3)c2c1C
  >57	i
> Cc1ccc2c(c1)NC(=O)C(CC(=O)NCCN(CC(C)C)CC(C)C)O2 (stereo not drawn)
  /	i
> Cc1cc2c(c(=O)n1Cc1cccnc1)C(c1ccc(F)cc1)C(C#N)=C(N)O2 (stereo not drawn)
  >57	i
> OCCN1CCOCCN(CCO)CCN(CCO)CC1
  >57	i
> CN(C)c1ncnc2ccc(-c3ccccc3C(F)(F)F)cc12
  /	i

(continued)
Value order – PK Bst	TsaE inh
> Cc1cc(C)n(-c2c(F)c(F)c(CN3CCCCC3)c(F)c2F)n1
  >25.6	/
> CCC(=O)N1CCCc2cc(S(=O)(=O)N3CCN(c4ccccn4)CC3)ccc21
  >57	i
> OCCN1CCN(C(=S)c2ccc(Cl)cc2)CC1
  ?	i
> CS(=O)(=O)c1ccc2nc(NC(=O)CN3CCCCCC3)sc2c1
  >57	i
> COC(=O)c1cc(Br)c(=O)n(-c2cc(C)on2)c1
  >11.4	/
> COC(=O)c1c(NC(=O)c2c(C)noc2C)sc2c1CCCCCC2
  >57	i
> CCOc1ccc(C2C3=C(CCCC3=O)Nc3nc(C(F)(F)F)nn32)cc1OC (stereo not drawn)
  >57	i
> OCCCN=C1CCCCC1
  /	i
> Cc1ccc(Cl)cc1N1CCN(Cc2nc3c(c(=O)[nH]c(=O)n3C)n2CCc2ccccc2)CC1
  >57	i
> O=C(CC1COc2ccccc2O1)NCc1ccccc1 (stereo not drawn)
  >57	i
> COC(=O)c1sccc1NC(=O)CN1CCN(c2ccc(F)cc2)CC1
  >57	i
> O=C(Nc1ccc(NC(=O)C2CC2)nc1)c1ccccn1
  i	i
> CCOc1cccc(N2C(=O)CC(N(CCc3ccc(OC)c(OC)c3)C(=O)CC)C2=O)c1 (stereo not drawn)
  >25.6	/
> Cc1cc(C)nc(NS(=O)(=O)c2cccs2)c1
  >57	i
> CCCCOCCCNC(=O)c1ccccc1OCC
  /	i

Further compounds:
Value order – PK Bst	TsaE inh
> CC(CC1C(C#N)=C(N)SC(N)=C1C#N)c1ccccc1 (stereo not drawn)
  >57	i
> O=C(Cc1cccs1)N1CCCC(c2nc(-c3ccc(S(=O)(=O)N4CCCC4)cc3)no2)C1 (stereo not drawn)
  >57	i
> COC(=O)C1=C(NC(=O)c2ccc(C)c(C)c2)CCS1
  >57	i
> Cn1c(=O)[nH]c(=O)c2c1nc(CN1CCN(c3ccc(F)cc3)CC1)n2CCCc1ccccc1
  >57	i
> CCOc1ccc(N(CC(=O)NCCCOC)S(C)(=O)=O)cc1
  /	i
> O=C1OCCC1Sc1nnc(-c2ccc3c(c2)OCO3)n1-c1ccccc1 (stereo not drawn)
  >57	i
> COCCNC(=O)c1ccc(N(C)S(=O)(=O)c2ccc(OC)c(OC)c2)cc1
  >57	i
> CCOc1ccccc1N=C1NC(=O)CS1
  >57	i
> CCNC(=O)Nc1cc2nc(C)n(Cc3ccc(Br)cc3)c2nc1C
  >57	i
> COC(=O)CCC(=O)Nc1ccc(S(=O)(=O)N2CCCCCC2)cc1
  >57	i
> Cc1cc(C)c2[nH]c(=O)c(C(c3nnnn3CC3CCCO3)N3CCC(C)CC3)cc2c1 (stereo not drawn)
  >57	i
> O=C(C1CCCCC1)N(Cc1nc2sc3c(c2c(=O)[nH]1)CCCC3)Cc1cccs1
  >57	i
> O=c1[nH]cnc2nn(-c3ccccc3)nc12
  /	i
> Cc1ccc(Cl)cc1N1CCN(Cc2nnnn2C2CCCCC2)CC1
  >57	i
> O=C(Nc1cc(C(=O)Nc2ccc(S(=O)(=O)O)cc2S(=O)(=O)O)cc(C(=O)Nc2ccc(S(=O)(=O)O)cc2S(=O)(=O)O)c1)Nc1cc(C(=O)Nc2ccc(S(=O)(=O)O)cc2S(=O)(=O)O)cc(C(=O)Nc2ccc(S(=O)(=O)O)cc2S(=O)(=O)O)c1
  /	i

(listing goes on)
Value order – PK Bst	TsaE inh
> CCCn1c(C(O)c2ccc(OCC)cc2)nc2ccccc21 (stereo not drawn)
  /	i
> NC(=O)C1C(c2ccccc2)=C1c1ccccc1
  /	i
> CCCCCN(C(=O)NC(=O)Nc1ccccc1OC)S(C)(=O)=O
  >57	i
> CCN(CC)S(=O)(=O)c1cc(C(=O)NC2CCCCC2)ccc1C
  /	i
> CC1CN(CC(O)COc2ccc(C(=O)c3ccccc3)cc2)CC(C)O1 (stereo not drawn)
  >57	i
> CCCn1c(-c2ccc(F)cc2)nc2c(N3CCCN(Cc4ccccc4)CC3)nc(C)nc21
  /	i
> O=c1c2ccccc2c(/C=N/n2cnnc2)c(O)n1-c1ccccc1
  >57	i
> CCC(=O)c1cccc2c1N=CC1=C(CC(C)(C)CC1=O)N2
  >57	i
> O=c1c(-c2cccc(F)c2)nc2cncnc2n1Cc1ccccc1Cl
  /	i
> COc1ccccc1CNC(=O)COC(=O)C1=COCCO1
  >57	i
> Cc1c(NC(=O)CCCCCN2C(=O)C3C4C=CC(C4)C3C2=O)c(=O)n(-c2ccccc2)n1C (stereo not drawn)
  /	i
> CC(C)NC(=O)Cn1cnc2c1c(=O)n(C)c(=O)n2C
  >57	i
> Fc1ccc(Cn2nnc(-c3ccc(CN4CCOCC4)cc3)n2)cc1
  >11.4	i
> COc1ccc(S(=O)(=O)N(C)CC(=O)NCc2cccnc2)cc1
  >57	i
> O[C@@H](COc1cccc2ccccc12)CN1CCOCC1
  /	i

(listing goes on)
Value order – PK Bst	TsaE inh
> O=C(Nc1cccc2nsnc12)c1ccc(F)cc1
  /	i
> CN(Cc1nc2ccccc2c(=O)[nH]1)CC(O)COCc1ccco1 (stereo not drawn)
  >57	i
> CCC1Oc2ccc(C)cc2N(CC(=O)NCCc2ccc(OC)c(OC)c2)C1=O (stereo not drawn)
  /	i
> CCN(CC)CCn1c(=S)[nH]c2cc3c(cc2c1=O)OCO3
  >57	i
> CC[C@H](C(=O)[C@H](C)[C@H](O)[C@H](C)CCc1ccc(C)c(O)c1C(=O)O)[C@H]1O[C@](CC)([C@@H]2CC[C@@](O)(CC)[C@H](C)O2)C[C@H]1C
  /	i
> COc1cc(Cl)cc(NC(=O)CCN2CCN(C)CC2)c1
  >57	i
> Cc1c2cnn(-c3ccccc3)c(=O)c2c(C)n1CCCC(=O)N1CCN(C)CC1
  /	i
> c1ccc2c(c1)NC(CN1CCOCC1)CO2 (stereo not drawn)
  >57	i
> Cc1csc(NC(=O)c2cc3c(s2)-c2ccccc2OC3)n1
  /	i
> CCOC(=O)CSc1nnc([C@H](Cc2ccccc2)NC(=O)OC(C)(C)C)o1
  >57	i
> CC(C(=O)c1ccccc1)n1c(N2CCOCC2)nc2c1c(=O)n(C)c(=O)n2C (stereo not drawn)
  >57	i
> CC(C)CN1CC2(CCN(C(=O)c3ccco3)CC2)C1
  /	i
> COc1cc(OC)cc(C(C)=O)c1
  >57	i
> COc1ccc(C(CNC(=O)c2cccnc2SC)N2CCOCC2)cc1 (stereo not drawn)
  >57	i
> CCC(=O)c1cc2c(cc1NC(=O)C(C)C)OCCO2
  >57	i

Other structures.
Value order – PK Bst	TsaE inh
> CCOc1ccc(NC2=NC(C)(C)N=C(N)N2)cc1
  /	i
> CC(=O)Nc1ccc(S(=O)(=O)NC(=O)C23CC4CC(CC(C4)C2)C3)cc1
  /	i
> CC(=O)c1cccc(NC(=O)Cc2cccs2)c1
  /	i
> CCn1c(C(O)c2ccc3c(c2)OCO3)nc2ccccc21 (stereo not drawn)
  >57	i
> CSc1ccc2c(c1)N(CCCN(C)C)c1ccccc1S2
  /	i
> CCS(=O)(=O)N1Cc2ccccc2CC1C(=O)OCC(=O)Nc1ccc(C)cc1 (stereo not drawn)
  >57	i
> CCc1c(C)c2ccc(O)c(CN(C)C)c2oc1=O
  >57	i
> CCOC(=O)N1CCN(C(=O)CSc2nc(-c3cccc(C)c3)ns2)CC1
  /	i
> CCN(CC)S(=O)(=O)c1ccc(C(=O)NCc2nnc(SCC(=O)OC)n2C)cc1
  >57	i
> COCCNC(=O)CN(C(=O)CCC(=O)Nc1cc(C)on1)c1ccccc1C
  >57	i
> O=C(NCC(=O)N(Cc1cccs1)C(C(=O)NC1CCCC1)c1ccco1)c1cccs1 (stereo not drawn)
  >57	i
> Cc1ccc2[nH]c(=O)c(CN(Cc3ccco3)S(=O)(=O)c3c(C)ccc4nsnc34)cc2c1
  >57	i
> COc1ccc(N2CCN(CCNS(=O)(=O)c3cccc4nsnc34)CC2)cc1
  >57	i
> CCOC(=O)c1cc2c(N)c(C(=O)c3cc(C#N)c(SC)nc3C)sc2nc1C
  >57	i
> CCn1c(C)cc2c(c1=O)C(c1ccccc1Br)C(C#N)=C(N)O2 (stereo not drawn)
  >57	i
> COc1ccc(C2C(C(=O)N3CCN(c4ccccc4F)CC3)c3ccccc3C(=O)N2C)cc1 (stereo not drawn)
  >57	i
> COc1ncnc(NS(=O)(=O)c2ccc(N)cc2)c1OC
  /	i

Only part of the results is shown, so the mix of outcomes need not match the whole.
